Screens (PubChem BioAssay)
D2 PAM: positive allosteric modulators of human D2 dopamine receptor. 360,000 tested, 0.23% active. DiscoveRx D2 beta-arrestin cells, luminescence, 90 min; 100% = 57 uM dopamine signal. P14416. AID 624464. potentiation, % (no concentration beside the values); active = potentiation of 50% or more; inconclusive = 30% to 50%; inactive = 30% or less;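 also: compound concentration not given in the record; tested on top of an EC20 dose of dopamine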
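D2 cells co-treated with compound plus 50 nM dopamine (EC20) for 90 min at 37 deg C to detect potentiation. Beta-arrestin recruitment was read as enzyme-fragment luminescence after 1 h at ambient temperature. Full response was set by 57 uM dopamine.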
TRPV1 potentiator: human TRPV1 potentiation | Q8NER1 | TRPV1-expressing cells, Fluo-8 calcium influx, capsaicin EC20 potentiation; host cell line not named in the record; control for the full effect not named in the record | potentiation, % at 8.33 µM | 320,000 tested, 0.02% active | AID 540277; active means potentiation above 80%; inconclusive means 30% to 80%; inactive means below 30%; also: 0% is about no effect
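TRPV1-expressing cells were cultured overnight at 35.5C and loaded with Fluo-8 calcium dye for 40 to 90 min at room temperature. After a 10 s baseline, compound was added and calcium influx was read kinetically for 3 min (ex 480/em 520 nm).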
TRPML1 agonist: agonists of human TRPML1 channel | 410,000 tested, 0.12% active | TRPML1-expressing cells, Ca2+ dye fluorescence, FDSS; host cell line not named in the record; reference of the full effect not given here | activation, % (no concentration beside the values) | Q9GZU1; in the data active = activation above about 50%; inconclusive = about 30% to 50%; inactive = below about 30%; also: 0% is about no effect; the text of the record puts the active cut at 80%
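Kinetic FDSS Ca2+ read in Tet-induced TRPML1-DL cells (ABD Ca8 dye plus quencher, 45-90 min RT loading): baseline, then compound, then 110 s agonist window; EC80 agonist 54-4 at 4uM final added afterwards for a 110 s antagonist window.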
CtBP-E1A inh: CtBP/E1A binding inhibition. AlphaScreen GST-E1A/His-CtBP binding, 1536-well; stronger effect = lower value; control for the full effect not named in the record. 340,000 tested, 0.49% active. AID 651724. activity change, % (no concentration beside the values); in the data active means activity change below about -65%; inconclusive means about -30% to -65%; inactive means above about -30%; also: % is scaled to controls: 0 for no effect and ±100 for the full control effect; compound concentration not given in the record
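In 5 uL wells, 23 nL compound meets equimolar GST-E1A and His-CtBP (5X stock 125 nM each) for 2 h, 37 °C. Beads (5X, 50 ug/mL) then 1 h, 37 °C, dark.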
TRPML1 inh: inhibitors of human TRPML1 channel; Q9GZU1; TRPML1-inducible cells, Ca2+ dye fluorescence, FDSS; stronger effect = lower value; inhibition of EC80 agonist-evoked calcium signal; activity change, negative = inhibition, % (no concentration beside the values); 390,000 tested, 0.02% active; AID 624415; in the data active means activity change below about -50%; inconclusive means about -30% to -50%; inactive means above about -30%;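 also: stimulus is agonist 54-4 at its EC80 concentration; % is scaled to controls: 0 for no effect and ±100 for the full control effect; compound concentration not given in the record; the text of the record puts the active cut at -80%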
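Tet-induced TRPML1-DL cells loaded with Ca8 no-wash calcium dye were read kinetically on FDSS. Compound addition was followed by EC80 agonist 54-4 (4 uM final); inhibition was read over 110 s.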
Six1-Eya2 inh: Six1/Eya2 interaction inhibition. Q15475+O00167. AlphaScreen GST-Six1/His-Eya2 binding, biochemical; stronger effect = lower value; control for the full effect not named in the record. activity change, % (test concentration not listed). 360,000 tested, 0.56% active; in the data active = activity change below about -65%; inconclusive = about -30% to -65%; inactive = above about -30%; also: % is scaled to controls: 0 for no effect and ±100 for the full control effect; compound concentration not given in the record
Target sequence (O00167 whole entry, looked up): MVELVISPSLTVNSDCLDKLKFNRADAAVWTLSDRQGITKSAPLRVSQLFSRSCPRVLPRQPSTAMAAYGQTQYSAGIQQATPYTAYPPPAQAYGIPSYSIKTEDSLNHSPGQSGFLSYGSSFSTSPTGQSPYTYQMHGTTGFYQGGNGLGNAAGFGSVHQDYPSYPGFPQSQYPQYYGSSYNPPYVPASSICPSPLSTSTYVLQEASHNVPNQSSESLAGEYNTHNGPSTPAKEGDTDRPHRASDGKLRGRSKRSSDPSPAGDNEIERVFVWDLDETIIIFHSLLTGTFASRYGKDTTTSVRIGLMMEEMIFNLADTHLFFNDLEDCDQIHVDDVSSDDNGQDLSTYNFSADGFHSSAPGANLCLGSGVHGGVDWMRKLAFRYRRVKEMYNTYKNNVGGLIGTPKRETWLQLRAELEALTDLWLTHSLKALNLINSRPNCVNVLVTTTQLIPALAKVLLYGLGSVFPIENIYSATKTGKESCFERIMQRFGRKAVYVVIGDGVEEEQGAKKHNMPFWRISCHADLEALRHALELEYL
Target sequence (Q15475 whole entry, looked up): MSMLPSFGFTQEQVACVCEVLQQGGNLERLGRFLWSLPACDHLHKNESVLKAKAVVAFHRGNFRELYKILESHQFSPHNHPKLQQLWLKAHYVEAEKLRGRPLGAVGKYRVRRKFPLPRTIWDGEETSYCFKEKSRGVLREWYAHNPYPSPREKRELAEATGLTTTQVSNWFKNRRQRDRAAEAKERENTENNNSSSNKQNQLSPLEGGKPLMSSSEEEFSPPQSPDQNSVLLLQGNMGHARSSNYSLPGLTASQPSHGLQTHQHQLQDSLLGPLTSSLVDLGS
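Homogeneous AlphaScreen proximity assay pairing GST-Six1 with His-tagged Eya2 (added as 5X mix: 250 nM and 500 nM) in 50 mM Tris pH 8.0, 300 mM NaCl, 1 mM TCEP. Glutathione donor and nickel acceptor beads; 1 h, 37 °C, dark.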
Starred values were filed as active, the others as inactive; ? = inconclusive; . = not tested or not shown.

The first 4 records as a preview:
SMILES	D2 PAM	TRPV1 potentiator	TRPML1 agonist	CtBP-E1A inh	TRPML1 inh	Six1-Eya2 inh
Cc1ccc(C)c(NC(=O)c2ccccc2Sc2ccc([N+](=O)[O-])cc2Cl)c1	5.9	5.7	-0.2	-7.3	-10.4	-8.6
Cn1c(=S)n(/N=C/c2ccc3c(c2)OCO3)c2ccccc21	-3.2	-5.5	1.3	-1.2	24.1	-1.0
Cc1cc(C)nc(/N=C(\N)Nc2ccc(F)c([N+](=O)[O-])c2)n1	-11.4	.	74.6*	-6.1	-13.2	-0.5
C=C(C)CSc1nnc([C@@H]2CCCN2)o1	-3.5	?	0.0	0.4	-6.1	1.5

This part in full, previewed entries included:
SMILES	D2 PAM	TRPV1 potentiator	TRPML1 agonist	CtBP-E1A inh	TRPML1 inh	Six1-Eya2 inh
Cc1ccc(C)c(NC(=O)c2ccccc2Sc2ccc([N+](=O)[O-])cc2Cl)c1	5.9	5.7	-0.2	-7.3	-10.4	-8.6
Cn1c(=S)n(/N=C/c2ccc3c(c2)OCO3)c2ccccc21	-3.2	-5.5	1.3	-1.2	24.1	-1.0
Cc1cc(C)nc(/N=C(\N)Nc2ccc(F)c([N+](=O)[O-])c2)n1	-11.4	.	74.6*	-6.1	-13.2	-0.5
C=C(C)CSc1nnc([C@@H]2CCCN2)o1	-3.5	?	0.0	0.4	-6.1	1.5
CC(=O)c1ccc(NC(=O)CC2S/C(=N/N=C3CCCCCC3)NC2=O)cc1 (stereo not given)	-3.1	-4.0	-0.4	-5.7	8.8	-1.9
COc1ccc(OC)c(NC(=O)CSc2nc(C)cs2)c1	1.6	-4.8	0.2	-1.0	0.5	1.6
O=C(CCN1CCN(CC(=O)Nc2ccccc2F)CC1)Nc1ccccc1F	-32.7	-6.1	-0.3	5.5	-9.7	5.5
c1ccc(C(c2nnnn2Cc2cccs2)N2CCN(C3CCCC3)CC2)cc1 (stereo not given)	-21.8	-6.7	0.0	4.6	29.5	2.7
CCOC(=O)N1CCC(N2Cc3cccc(C(=O)N4CCN(c5cccc(Cl)c5)CC4)c3C2=O)CC1	-0.1	-1.1	-1.4	.	-9.0	3.5
COC(=O)c1ccc(CSc2cc(C)c3ccccc3n2)o1	-9.6	-0.1	4.0	0.0	2.2	-6.4
Cc1ccc2cccc(S(=O)(=O)Nc3ccc4c(c3)OCO4)c2n1	-9.0	-24.5	3.1	2.3	9.2	-7.9
CCCOc1cccc(-c2nn(-c3ccccc3)cc2/C=C(\C#N)C(=O)NCCCn2ccnc2)c1	6.3	-6.8	-0.2	-14.1	2.6	-17.7
O=C(NCCF)C1Nc2ccc(OC(F)(F)F)cc2C2C=CCC12 (stereo not given)	6.1	.	0.1	3.1	8.0	-2.9
CC(C)Cc1nc2ccccc2[nH]1	-5.2	-2.8	-0.7	3.0	-2.2	-10.1
O=C(OCCOc1ccccc1F)c1cc(S(=O)(=O)N2CCOCC2)ccc1F	-5.9	.	1.5	6.1	7.3	-9.5
CCN(CC1COc2ccccc2O1)C(=S)NC1CC2CCC1C2 (stereo not given)	-6.9	0.6	0.3	-2.6	26.5	3.0

Five compounds already listed, sorted by length of the SMILES, ascending:
SMILES	D2 PAM	TRPV1 potentiator	TRPML1 agonist	CtBP-E1A inh	TRPML1 inh	Six1-Eya2 inh
CC(C)Cc1nc2ccccc2[nH]1	-5.2	-2.8	-0.7	3.0	-2.2	-10.1
C=C(C)CSc1nnc([C@@H]2CCCN2)o1	-3.5	?	0.0	0.4	-6.1	1.5
O=C(NCCF)C1Nc2ccc(OC(F)(F)F)cc2C2C=CCC12 (stereo not given)	6.1	.	0.1	3.1	8.0	-2.9
Cc1ccc2cccc(S(=O)(=O)Nc3ccc4c(c3)OCO4)c2n1	-9.0	-24.5	3.1	2.3	9.2	-7.9
Cc1ccc(C)c(NC(=O)c2ccccc2Sc2ccc([N+](=O)[O-])cc2Cl)c1	5.9	5.7	-0.2	-7.3	-10.4	-8.6
